UCH37 DUB inh: blocks the human deubiquitinase UCH37 | inhibition, % (concentration not given with the values) | purified proteasome/UCH37, Ub-AMC cleavage fluorescence | Q9Y5K5 | actives 0.33% (n = 330,000) | AID 588478;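 active = mean of two replicates above 20%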;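 note: 0% = compound-free wells with enzyme and 100% = wells lacking proteasome; stock transfer was 100 nL into about 20 µL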
Target sequence (Q9Y5K5 whole entry, looked up): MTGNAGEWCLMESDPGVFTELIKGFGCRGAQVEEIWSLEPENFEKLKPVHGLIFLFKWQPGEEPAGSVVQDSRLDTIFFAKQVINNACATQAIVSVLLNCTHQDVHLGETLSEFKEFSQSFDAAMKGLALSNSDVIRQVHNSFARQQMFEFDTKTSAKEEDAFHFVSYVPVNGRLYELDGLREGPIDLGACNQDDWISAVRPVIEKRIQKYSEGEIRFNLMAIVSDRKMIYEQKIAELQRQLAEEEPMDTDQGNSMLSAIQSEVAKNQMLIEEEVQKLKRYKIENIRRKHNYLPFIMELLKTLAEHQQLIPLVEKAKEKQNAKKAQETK
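Schedule: 30 min plus 25 min, room temperature / Material: human UCH37 within purified proteasomes / Technique: AMC fluorescence intensity at 355/460 nm / Buffer or medium: pH 7.4 Tris-HCl (50 mM) with ovalbumin, ATP-MgCl2, DTT / Controls: wells without proteasome as full block, compound-free enzyme plus substrate as uninhibited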
Vif A3G: inhibitors of Vif binding to APOBEC3G peptide, primary screen, biochemical, TR-FRET, GST-Vif 1-94, biotin-A3G peptide, dose response retest (AID 1117319); one-dose inhibition, %; IC50 in µM for titrated hits; actives 0.57% (n = 260,000); TR-FRET GST-Vif / biotin-A3G peptide binding; higher % means a stronger effect; test concentration not given here; strong numbers were not always called active;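 active = above the screen mean plus three standard deviations and confirmed in dose response; inconclusive = results disagree or hit not tested in dose response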;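 note: Vif residues 1-94 fused to GST binding biotinylated APOBEC3G peptide 110-148; 0% = full assay without inhibitor and 100% = GST in place of GST-Vif; retest series ran down from 100 µM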
HNF4A DNA FP: change in binding of human HNF4 alpha to DNA | AID 1224865 | P41235 | actives 0.3% (n = 360,000) | activity change, % at 10 µM | HNF4a-FITC DNA binding, fluorescence polarization, 1 h; in the data active = activity change above about 30%, passing the limit was not always enough;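 note: controls were the assay level and a saturating level of protein; the project sought stronger binding though the title names inhibitors; some compounds called inactive have numbers as strong as hits; positive values seem to mean higher polarization but the record does not say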
FGF22 binding: FGF22 (human) thermal shift binding; Q9HCT0; recombinant FGF22 thermal shift, SYPRO orange fluorescence; percent of sucrose octasulfate shift, DMSO zero; calls only at 9.99 µM; actives 1.5% (n = 340,000); AID 651658;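 active = melting point raised past a set limit in the mean and every replicate; inconclusive = no clear call; three in four hits are not shown here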
Target sequence (Q9HCT0 whole entry, looked up): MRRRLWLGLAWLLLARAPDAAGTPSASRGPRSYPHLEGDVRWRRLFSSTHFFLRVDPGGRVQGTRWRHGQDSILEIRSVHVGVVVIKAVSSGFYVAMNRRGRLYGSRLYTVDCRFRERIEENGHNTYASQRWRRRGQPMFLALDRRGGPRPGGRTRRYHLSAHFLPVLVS
RanGTP-Impb inh: inhibitors of RanGTP-importin-beta interaction, primary screen, biochemical, FRET, CFP-Ran, YFP-importin-beta, homogeneous. cell-free CFP-Ran/YFP-importin-beta FRET ratio. inhibition, % (test concentration not listed). actives 1.1% (n = 300,000);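 active = most replicates above 15%; inconclusive = exactly half above 15%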;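 note: 0% = DMSO wells and 100% = Ran loaded with GDP instead of GTP; wells of about 40 µL received 100 nL stock; the first replicate is given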
MLL AF4-AF9 inh: MLL-AF4/AF9 protein interaction inhibition. P42568. AlphaScreen, biotin-AF4 peptide binding to FLAG-AF9. inhibition, % at 10 µM. actives 0.47% (n = 350,000). AID 651704;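 active = every replicate reaching a set inhibition limit, whatever the replicate mean, cut at about 25% in these data; inconclusive = mean inhibition reaches that limit but some replicates miss it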;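 note: 0% = plate neutral control median and 100% = total signal loss; the record names both 10 and 1 µM as test concentration; the first replicate is given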
Target sequence (P42568 whole entry, looked up): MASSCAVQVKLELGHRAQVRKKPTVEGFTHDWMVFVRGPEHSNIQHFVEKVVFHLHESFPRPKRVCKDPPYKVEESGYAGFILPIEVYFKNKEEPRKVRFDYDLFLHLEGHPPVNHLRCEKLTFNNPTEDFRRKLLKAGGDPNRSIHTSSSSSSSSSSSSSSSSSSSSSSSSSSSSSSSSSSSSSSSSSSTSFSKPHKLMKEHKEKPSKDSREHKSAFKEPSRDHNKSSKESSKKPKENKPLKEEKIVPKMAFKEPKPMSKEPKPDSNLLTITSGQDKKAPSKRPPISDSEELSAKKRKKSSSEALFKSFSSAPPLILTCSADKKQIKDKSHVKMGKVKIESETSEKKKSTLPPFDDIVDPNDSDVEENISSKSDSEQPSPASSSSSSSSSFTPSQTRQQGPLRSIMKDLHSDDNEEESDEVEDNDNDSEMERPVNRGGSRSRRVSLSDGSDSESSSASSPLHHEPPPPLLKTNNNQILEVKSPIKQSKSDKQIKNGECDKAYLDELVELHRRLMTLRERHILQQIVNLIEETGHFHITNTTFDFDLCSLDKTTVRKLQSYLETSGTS
Ecoli growth: E. coli growth inhibition | OD600 absorbance (no concentration beside the values) | Escherichia coli growth, OD600, 23 h; stronger effect = lower value | actives 0.21% (n = 330,000) | AID 1053175;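 active = OD600 absorbance below the run mean of sample wells minus 3.6 SD, in any replicate, cut at about 0.56 in these data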;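 note: stock transfer was 300 nL into about 60 µL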
Active calls of the source: *; i = inactive; ? = inconclusive; . = no result given; & = joins results of further samples. Some of the compounds tested. The share of hits here may be higher or lower than overall.

SMILES | UCH37 DUB inh | Vif A3G | HNF4A DNA FP | FGF22 binding | RanGTP-Impb inh | MLL AF4-AF9 inh | Ecoli growth
O=C(COc1ccc(F)cc1Cl)Nc1cccc(S(=O)(=O)N2CCCCCC2)c1 | 5.9 | -2.4% | 2.4 | i | . | -5.0 | 0.705
Cc1sc2ncnc(N3CCC(C(=O)NCC(=O)Nc4ccc(F)c(F)c4)CC3)c2c1C | 3.1 | . | 5.2 | i | 0.5 | -0.5 | 0.698
CCOc1ccc(C2C(C#N)=C(N)N(N(C)C)C3=C2C(=O)CCC3)cc1 (stereo unspecified) | 4.6 | 0.0% | 2.2 | i | -2.7 | 1.5 | 0.705
NS(=O)(=O)c1ccc(CCNc2ccnc3cc(Cl)ccc23)cc1 | -6.1 | . | 0.3 | i | 2.0 | 2.5 | 0.703
CCOc1cc(NC(=O)c2ccco2)c(OCC)cc1NC(=O)CCC(=O)NCc1cccnc1 | -0.7 | -2.4% | 5.8 | . | . | . | 0.677
O=C(Cc1cccs1)Nc1nnc(-c2ccccc2)s1 | 0.6 | -1.4% | 5.5 | i | -5.4 | -2.0 | 0.643
CN(CC(=O)Nc1ccc(F)c(F)c1F)C(=O)C1=NN(c2ccccc2)C(=O)CC1 | 2.1 | . | 0.8 | i | . | 0.0 | 0.679
COC(=O)C1=C(C)NC2=C(C(=O)c3ccccc32)C1c1cccc(OC)c1 (stereo unspecified) | 7.8 | -6.4% | -0.4 | i | 3.9 | 1.6 | 0.654
COc1ccc(C2=NCC(CSc3nccc(=O)[nH]3)S2)cc1 (stereo unspecified) | 0.4 | 13.3% | -1.8 | . | 0.3 | . | 0.74
Cn1nc(C(=O)OCCN2C(=O)c3ccccc3C2=O)c2ccccc2c1=O | 1.7 | -11.2% | 1.1 | . | -2.5 | . | 0.781
CC(C)(C)C1CCC(OC(=O)CN2CCCCC2)CC1 (stereo unspecified) | 3.0 | -5.6% | -0.1 | i | 4.7 | . | 0.638
Cc1ccc(C(=O)c2cc3ccccc3o2)cc1 | 6.4 | -16.0% | 1.5 | . | 0.7 | . | 0.669
CC(=O)Nc1cccc2cc(S(=O)(=O)O)ccc12 | . | . | -5.3 | i | . | -13.4 | .
OC(CNCc1cccc(Br)c1)c1ccccc1 (stereo unspecified) | 5.5 | -4.8% | -0.6 | i | -1.5 | -33.5 | 0.659
CCN1CCCC1CNC(=O)Cn1nc(C)n2nc(-c3ccccc3)cc2c1=O (stereo unspecified) | 0.4 | . | -3.4 | i | 3.6 | 5.4 | 0.668
Cc1c(NC(=S)NC(=O)c2cccc(Cl)c2)c(=O)n(-c2ccccc2)n1C | -2.3 | . | -1.1 | i | 3.2 | -1.9 | 0.655
Cc1cccc(C(=O)N2CCCC(N3CCN(c4ccccc4)CC3)C2)n1 (stereo unspecified) | 5.5 | . | 1.4 | i | -1.2 | -2.6 | 0.708
COc1ccc(/C=C2/SC(=S)N(CCC(=O)N3CCN(C)CC3)C2=O)cc1 | 6.2 | . | -1.6 | i | 2.6 | 6.1 | 0.695
Cn1sc(NC(=O)c2ccccc2Cl)nc1=O | 2.4 | -8.3% | -3.4 | . | ? | . | 0.684
CSc1ncc(C(=O)Nc2cccc(S(N)(=O)=O)c2)n1-c1ccccc1 | 1.8 | 2.6% | 3.1 | i | 3.7 | -2.4 | 0.671
O=C(Nc1cc(Cl)ccc1O)C1CCCO1 (stereo unspecified) | 1.8 | -5.4% | 0.1 | . | 0.0 | . | 0.658
CCOc1ccccc1N(C)C(=O)CCS(=O)(=O)c1ccc2c(c1)NC(=O)CO2 | -2.9 | . | 0.4 | i | -1.8 | -0.2 | 0.675
CC(CN1CCOCC1)OC(=O)c1cccc(Br)c1 (stereo unspecified) | 2.0 | 1.8% | 4.7 | . | 7.8 | . | 0.745
COc1ccccc1C(=O)NC(=S)Nc1cccnc1Cl | 9.7 | . | 0.3 | i | -3.4 | 0.0 | 0.682
O=C(/C=C/c1ccc(Br)o1)NCCCN1CCOCC1 | 0.6 | ? | 2.9 | i | 0.3 | -1.5 | 0.653
O=C(c1ccccc1)c1cc2ccccc2oc1=O | 6.3 | 3.5% | 4.3 | i | -0.9 | -1.3 | 0.661
COc1ccccc1N1CCN(CC(O)COc2ccc3c(c2)OCO3)CC1 (stereo unspecified) | 2.0 | ? | 2.7 | . | -5.8 | . | 0.684
Nc1nccnc1C(=O)OCC(=O)NCCc1ccc(Cl)cc1 | i | . | 5.8 | i | . | 1.1 | 0.705
COc1ccc(O)c(/C=N/NC(=O)c2cc(=O)[nH]c3ccccc23)c1 | . | 23.6% | -1.9 | i | 2.3 | 11.4 | .
CC(Oc1ccc(Br)cc1)C(=O)NCC(c1cccs1)N1CCOCC1 (stereo unspecified) | 5.9 | . | -1.6 | i | . | -1.8 | 0.711
COc1ccc(C)cc1Nc1nc(N)c2ccccc2n1 | 0.3 | 2.4% | -3.0 | i | 5.7 | -0.4 | 0.626
COc1ccccc1C(c1nnnn1C(C)C)N1CCN(C(=O)c2ccco2)CC1 (stereo unspecified) | 0.4 | -4.4% | -1.0 | i | 1.3 | 1.4 | 0.712
CC(C)C(=O)Nc1ccc(C(=O)Nc2ccc(S(=O)(=O)N3CCOCC3)cc2)cc1 | 0.6 | . | 2.5 | . | -2.1 | . | 0.638
CCc1nc2c(OCc3cccc(OC)c3)cccn2c1N(C)C(=O)c1ccccc1F | . | . | 2.4 | i | . | -0.6 | .
C=CCOC(=O)C(=O)/C=C/c1coc2ccccc2c1=O | -3.3 | 6.4% | -5.0 | i | 3.5 | -0.7 | .
O=C(COc1ccc(Cl)cc1)N1CCN(S(=O)(=O)c2cc(F)ccc2F)CC1 | . | 8.9% | 3.1 | i | . | 0.8 | .
Cc1cc(OCC(=O)NCC2CCC(C(=O)O)CC2)c2c(C)c(C)c(=O)oc2c1 (stereo unspecified) | -98.5 | . | 3.0 | i | -1.0 | 0.4 | 0.663
Cc1c(Cl)cccc1NC(=O)C1CC2CCC1C2 (stereo unspecified) | 1.9 | . | 0.6 | i | -0.9 | -0.7 | 0.643
CCOC(=O)C1(Cc2ccccc2Cl)CCN(C(=O)c2cc(C)on2)CC1 | 1.8 | . | -1.9 | i | 9.8 | 1.8 | 0.666
C[C@@H]1CN([C@H](C)CO)C(=O)CCCn2cc(nn2)CO[C@H]1CN(C)S(=O)(=O)c1ccc(F)cc1 | . | . | -4.4 | i | . | -9.3&-1.3&-1.0 | .
COc1cc(-c2c(-c3cc(OC)c(OC)c(OC)c3)noc2C)ccc1F | 5.0 | . | . | i | -1.5 | -6.6 | 0.702
COc1ccccc1NC(=O)CC1C(=O)NCCN1C(=O)Nc1ccccc1 (stereo unspecified) | 3.8 | 25.5% | -3.8 | . | 0.3 | . | 0.765
CN1CCN(NC(=O)c2ccc(Cl)cc2Cl)CC1 | 4.8 | -5.0% | -1.0 | i | -3.9 | 0.3 | .
O=S1(=O)CC/C(=N\Nc2ccc(F)cc2)c2ccsc21 | . | -2.2% | -3.9 | i | -4.7 | 8.5 | .
COCCCN1Cc2cccc(C(=O)O)c2C1=O | 0.1 | 0.5% | 1.3 | i | -3.6 | -9.1 | 0.768
CC(C)N(Cc1ccccc1)C(=O)CCS(=O)(=O)c1ccc2c(c1)oc(=O)n2C | 3.9 | . | 4.3 | i | 2.1 | -8.5 | 0.702
COC(=O)c1cn(C(=O)c2cc(C)cc(C)c2)c2ccccc12 | 3.6 | 8.6% | 3.4 | . | -1.2 | -1.0 | 0.681
CC1CCCN(C(=O)CN2C(=O)CSc3ccc(S(=O)(=O)N4CCOCC4)cc32)C1 (stereo unspecified) | -0.1 | . | -2.3 | i | 2.1 | 0.1 | 0.682

Reprinted at random: three records from the list, in no set order.
SMILES | UCH37 DUB inh | Vif A3G | HNF4A DNA FP | FGF22 binding | RanGTP-Impb inh | MLL AF4-AF9 inh | Ecoli growth
CCN1CCCC1CNC(=O)Cn1nc(C)n2nc(-c3ccccc3)cc2c1=O (stereo unspecified) | 0.4 | . | -3.4 | i | 3.6 | 5.4 | 0.668
CC(C)(C)C1CCC(OC(=O)CN2CCCCC2)CC1 (stereo unspecified) | 3.0 | -5.6% | -0.1 | i | 4.7 | . | 0.638
COc1ccc(C)cc1Nc1nc(N)c2ccccc2n1 | 0.3 | 2.4% | -3.0 | i | 5.7 | -0.4 | 0.626

(further entries)
SMILES | UCH37 DUB inh | Vif A3G | HNF4A DNA FP | FGF22 binding | RanGTP-Impb inh | MLL AF4-AF9 inh | Ecoli growth
Cc1nn(-c2ccccc2)c2nc(=O)n(-c3ccccc3)cc12 | 1.5 | 23.2% | -0.3 | . | 5.3 | . | 0.73
CCc1nc(SCc2cc(=O)[nH]c3ccccc23)c2c(C)c(C)sc2n1 | 1.6 | . | -5.4 | i | . | -28.5 | 0.727
CC(C)C(C(=O)NC1CCCC1)N(Cc1ccco1)C(=O)CNS(=O)(=O)c1ccccc1 (stereo unspecified) | 4.6 | . | 3.1 | i | 3.5 | -4.4 | 0.677
Cc1noc(C)c1COc1ccccc1C(=O)NCCc1ccccc1 | 0.5 | -3.5% | -0.2 | i | . | 4.7 | 0.667
CCn1ccc2cc(OC)ccc2c1=S | 7.1 | -2.8% | 2.7 | . | 3.3 | . | 0.698
O=C(CSc1nnc(CNC(=O)c2cccs2)o1)NCCc1ccccc1 | -0.5 | 20.6% | -2.1 | . | 3.9 | . | 0.703
OCC1OC(Oc2cccc3ccccc23)C(O)C(O)C1O (stereo unspecified) | 3.2 | -2.0% | 1.5 | i | -1.1 | -0.4 | 0.673
COC(=O)C1CCN(C(=O)CN2C(=O)NC(CCc3ccccc3)C2=O)CC1 (stereo unspecified) | -1.5 | -5.0% | 0.0 | . | -1.2 | . | 0.735
COc1ccc(-c2nn(-c3ccccc3)cc2/C=C/C(=O)OCC(=O)Nc2ccc(C#N)cc2)cc1 | -23.6 | -9.0% | -2.8 | . | -0.5 | . | 0.714
COc1ccc(NC(=S)NC2CCN(Cc3ccccc3)CC2)cc1OC | 4.2 | . | 2.3 | i | -3.1 | 0.5 | 0.733
Cc1oc(-c2ccccc2)nc1C(=O)Nc1nccs1 | -1.4 | 13.8% | 5.3 | . | 2.8 | . | 0.718
COc1cccc(OC)c1-c1nn2c(-c3ccco3)nnc2s1 | 1.2 | 15.4% | -0.9 | . | 2.6 | . | 0.707
COC(=O)Cc1[nH]nc2c1C(C1C=CCCC1)C(C#N)=C(N)O2 (stereo unspecified) | 1.0 | 7.3% | -0.9 | . | -0.1 | . | 0.721
Cc1ccnc(NS(=O)(=O)c2ccc(NC(=O)C3CCCCC3)cc2)n1 | 0.3 | -1.0% | 3.4 | . | -0.1 | . | 0.735
O=C(COC(=O)c1ncc(Cl)c(Cl)c1Cl)NCCc1ccccc1 | 2.7 | 3.1% | -2.0 | i | . | -3.3 | 0.612
COc1ccc(OCC(=O)NNC(=O)c2cccnc2)cc1 | 2.8 | ? | -0.5 | . | -5.8 | . | 0.726
CC1=CC(=Nc2c(C)n(C)n(-c3ccccc3)c2=O)C=C(C)C1=O | -0.3 | 16.9% | 3.0 | i | -1.9 | -34.4 | 0.677
CN1OC[C@@H]2CN(C(=O)c3ccc(-c4ccccc4)cc3)[C@H](c3ccc(-c4cccc(F)c4)cc3)C[C@@H]21 | . | . | 0.8 | i | . | -7.9 | .
NS(=O)(=O)c1ccc(N/N=C2/CCCc3ccccc32)c([N+](=O)[O-])c1 | . | ? | 2.2 | i | 3.3 | 1.6 | .
NS(=O)(=O)c1ccc(CCNC(=O)CSc2nc3ccsc3c(=O)n2CCCCCC(=O)O)cc1 | 4.3 | 3.8% | -4.6 | i | -2.8 | -0.9 | 0.733
Cc1ccccc1C(=O)Nc1sc(C)c(C)c1C(=O)c1ccccc1 | 3.8 | -0.7% | 6.0 | . | -4.6 | . | 0.692

Screening data: PubChem, several laboratories
